NPYLR7 agonist = activates Aedes aegypti NPYLR7 receptor; actives 0.15% (n = 270,000); activation, % at 10 µM; HEK293T NPYLR7/Galpha15, GCaMP6s calcium fluorescence; in the data active means activation above about 40%;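 further: 0% = vehicle and 100% = reference agonist at the receptor; some compounds past the cut are filed as inactive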
NPYLR7 agonist max-min = recorded beside NPYLR7 agonist, whose call it bears; activation, %; measured here: Max-Min RFU normalised activation; some inactives read as strong as hits;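 span of the calcium signal over five minutes; 0% = vehicle and 100% = native peptide agonist; compound fluorescence can raise it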
* marks the source's active call; other numbers are inactive results; & = joins results of further samples.

Preview:
Below each SMILES: NPYLR7 agonist | NPYLR7 agonist max-min
- CC1(C)OCC([N+](=O)[O-])([N+]([O-])=NS(=O)(=O)c2ccccc2)CO1
  -6 | -13
- CCCN(CC)c1ccc(C(=O)NNc2ncccn2)cc1
  1 | 0
- CN(C)CCNc1c2c(c(C#N)c3nc4ccccc4n13)CCCC2
  7 | 6
- CCCS(=O)(=O)Nc1ccc(N(C)C)c(CN(Cc2ccccc2)C(=O)C(C)(C)C)c1
  9 | 9
- Cc1ccc(NC(=O)c2cccn(OCc3ccccc3F)c2=O)cc1C
  2 | 0
- CCc1sc(C(=O)Nc2ccc(S(C)(=O)=O)cc2)cc1C
  -3 | -4
- CC1(O)CCN(C(=O)CC(C)(C)c2ccccc2)C1 (stereo not drawn)
  -6&0 | -6&26
- CCOC(=O)c1c(C)c(C(=O)CN(C2CC2)S(=O)(=O)/C=C/c2ccccc2)c(C)n1C
  -1 | 4
- Nc1nc(CCC(=O)N2CCOC(c3ccc(Cl)cc3)C2)cs1 (stereo not drawn)
  1 | 1
- Cc1nc2c(C)cccn2c(=O)c1NC(=O)Cc1ccc(Cl)cc1
  3 | 2
- COc1ccc(F)cc1C1=NNC(=NC(C)(C)C)SC1
  -2 | -2
- COc1ccc(OC)c(-c2cnc(-c3ccc(CNC(=O)c4c(F)cccc4F)cc3)[nH]2)c1
  23 | 13
- COc1ccc(-c2c(C)nn(-c3ccccc3)c2C)c(C(=O)NC(C)(C)Cc2c[nH]c3ccccc23)c1
  -7 | -10
- COCCNC(=O)C(NC(=O)c1ccc2c(c1)OCO2)C1CCN(C(=O)c2ccco2)CC1 (stereo not drawn)
  12 | 15
- CN(C)CCN(Cc1nccn1Cc1ccccc1C(F)(F)F)C(=O)C1CCCC1
  7 | 11

The list itself, from the start:
Below each SMILES: NPYLR7 agonist | NPYLR7 agonist max-min
- CC1(C)OCC([N+](=O)[O-])([N+]([O-])=NS(=O)(=O)c2ccccc2)CO1
  -6 | -13
- CCCN(CC)c1ccc(C(=O)NNc2ncccn2)cc1
  1 | 0
- CN(C)CCNc1c2c(c(C#N)c3nc4ccccc4n13)CCCC2
  7 | 6
- CCCS(=O)(=O)Nc1ccc(N(C)C)c(CN(Cc2ccccc2)C(=O)C(C)(C)C)c1
  9 | 9
- Cc1ccc(NC(=O)c2cccn(OCc3ccccc3F)c2=O)cc1C
  2 | 0
- CCc1sc(C(=O)Nc2ccc(S(C)(=O)=O)cc2)cc1C
  -3 | -4
- CC1(O)CCN(C(=O)CC(C)(C)c2ccccc2)C1 (stereo not drawn)
  -6&0 | -6&26
- CCOC(=O)c1c(C)c(C(=O)CN(C2CC2)S(=O)(=O)/C=C/c2ccccc2)c(C)n1C
  -1 | 4
- Nc1nc(CCC(=O)N2CCOC(c3ccc(Cl)cc3)C2)cs1 (stereo not drawn)
  1 | 1
- Cc1nc2c(C)cccn2c(=O)c1NC(=O)Cc1ccc(Cl)cc1
  3 | 2
- COc1ccc(F)cc1C1=NNC(=NC(C)(C)C)SC1
  -2 | -2
- COc1ccc(OC)c(-c2cnc(-c3ccc(CNC(=O)c4c(F)cccc4F)cc3)[nH]2)c1
  23 | 13
- COc1ccc(-c2c(C)nn(-c3ccccc3)c2C)c(C(=O)NC(C)(C)Cc2c[nH]c3ccccc23)c1
  -7 | -10
- COCCNC(=O)C(NC(=O)c1ccc2c(c1)OCO2)C1CCN(C(=O)c2ccco2)CC1 (stereo not drawn)
  12 | 15
- CN(C)CCN(Cc1nccn1Cc1ccccc1C(F)(F)F)C(=O)C1CCCC1
  7 | 11
- NC(=O)NC(=O)COC(=O)c1ccc([N+](=O)[O-])o1
  -1 | -2
- COc1ccc2cccc(NC(=O)c3cc(-c4cc(OC)c(OC)c(OC)c4)n[nH]3)c2n1
  -2 | -3
- CC(=O)Nc1ccc(N2C(=O)c3cccc4c(C(=O)c5ccccc5)ccc(c34)C2=O)cc1
  5 | 3
- CC(=O)NC1=NN(C(C)=O)C2(S1)C(=O)N(CCCOc1ccccc1C)c1ccccc12 (stereo not drawn)
  4 | 3
- Cc1c(CN2CCN(Cc3cccc(F)c3)CC2)[nH]c2ccc(F)cc12
  9 | 5
- CC(=O)Nc1ccc(C(F)(F)F)cc1NC(=O)/C=C/c1cnn(C)c1
  5 | 3
- Cc1nc(C2(NC(=O)C3CC(c4cccc(F)c4)=NO3)CCCC2)no1 (stereo not drawn)
  13 | 11
- Cc1[nH]c(=O)sc1C(=O)NCc1ccc([N+](=O)[O-])cc1
  13 | 6
- CCCCn1c(C(C)NC(=O)CC)nc2ccccc21 (stereo not drawn)
  7 | 10
- CCc1ccc(NS(=O)(=O)c2ccccc2Br)cc1
  2 | 1
- CC(=O)Nc1ccc(Cl)c(C(=O)NCc2nnc3n2CCC3)c1
  1 | -2
- CN[C@@H]1[C@H](O)[C@H](CO)O[C@@H]1CNC(C)C
  -7 | -7
- CCCCN(C)C(=O)c1c(C(F)(F)F)nn(C2CCCN(C)C2)c1C (stereo not drawn)
  12 | 4
- COc1ccccc1/C=C/C1=NC(=C\c2ccc3c(c2)OCO3)/C(=O)O1
  -1 | -6
- COc1cc(-c2nc3ccc(Br)cn3c2NC2CCCCC2)ccc1OC(=O)c1ccc2c(c1)OCO2
  3 | 12
- CNC(=S)N(CCc1ccc(S(N)(=O)=O)cc1)C1CC(=O)N(c2ccc(F)cc2)C1=O (stereo not drawn)
  2 | 0
- O=C(Nc1ccc(F)cc1)c1[nH]c2ccccc2c1Cl
  3 | -3
- O=c1c2cc3c(=O)n(C4CC4)ccc3nc2ccn1-c1ncn[nH]1
  3 | 8
- CCCCN(C)C(=O)c1sc(=O)n(Cc2ccc(OC(C)=O)cc2)c1C
  5 | 1
- Cc1cc(NC(=O)OCC(F)(F)F)no1
  1 | 5
- Cc1oc2cc3c(C(=O)N4CCCCC4)c(C)oc3cc2c1C(=O)N1CCCCC1
  4 | 2
- CO[C@@H]1CC[C@H]2C[C@@H]1[C@@H](Oc1ccccn1)CN2c1ccccn1
  25 | 35
- COc1ccc(C(=O)c2c(C)[nH]n(-c3ccccc3)c2=O)cc1OC
  16 | 7
- CC(=O)Nc1ccc(N=Nc2c(C)[nH]n(-c3nc(-c4ccccc4)cs3)c2=O)cc1
  -2 | -5
- COc1ccc(OC)c(C(=O)CN2CCCCCC2(C)C(=O)NC(C)C)c1 (stereo not drawn)
  4 | 3
- Cc1cc(C)c(-n2c(C)cc(CO)c2C)c(C)c1
  18 | 3
- Nc1cc(-c2ccc(Cl)c(Cl)c2)nn1-c1ccc(C(=O)N[C@H](CO)Cc2ccccc2)cc1
  -9 | -13
- O=C(CC(c1cccc(F)c1)c1cn(Cc2ccccc2)c2ccc([N+](=O)[O-])cc12)NCc1ccccn1 (stereo not drawn)
  24 | 36
- O=c1ncc(F)c[nH]1
  -3 | -7
- COc1cccc(-c2cc(C(=O)Nc3ccc(F)cc3)nc3cc(C(C)(C)C)nn23)c1
  11 | 7
- O=C(OCc1nc(C(=O)NCCc2ccc(F)cc2)cs1)c1ccccc1
  -5 | -10
- COc1cc(C)ccc1-n1c(CCC(=O)NCc2ncccc2C)cc2c1-c1ccccc1OC2
  0 | -3
- CCCNC(=O)N1CCN(S(=O)(=O)c2ccc(C)cc2)CC1
  8 | 2
- N#CC1C(=N)Oc2n[nH]c(C(F)(F)F)c2C1c1cccs1 (stereo not drawn)
  -1 | -1
- Cc1cc2nc(-c3ccccc3)c(N3CCN(C(=O)C4CCCCC4)CC3)nc2cc1C
  25 | 25
- CCCNC(=O)c1nnc2n1CCN(C(=O)c1cccn1C)C2
  9 | 4
- COCCN(CC(=O)N(CCc1ccc(OC)c(OC)c1)Cc1ccc(C)o1)C(=O)Nc1cccc(Cl)c1
  -9 | -21
- Nc1nc(CSc2ncn[nH]2)nc(Nc2ccc(F)cc2)n1
  2 | 2
- O=S(=O)(c1ccccc1)c1nnn2c1nc(NCC1CCCO1)c1sccc12 (stereo not drawn)
  -4 | -5
- Cc1ccc2nc(C)c(NC(=O)NCc3ccccc3)c(=O)n2c1
  0 | -2
- COc1ccc(-n2c(-c3cccs3)nc3nc4ccccc4nc32)cc1OC
  5 | -4
- COc1ccc(C(C)NC(C)C(=O)Nc2ccccc2Cl)cc1F (stereo not drawn)
  -12 | -8
- CC(C)C(NC(=O)CN1CC(=O)NC1=O)c1ccccn1 (stereo not drawn)
  2 | -2
- CC(C)c1ccc(S(=O)(=O)c2c(C(=O)N3CCSCC3)cnc3ccc(Cl)cc23)cc1
  -8 | -10
- C=CCN1C(=O)NC(c2cccc(F)c2)C2=C1CN(CCc1ccc(OC)c(OC)c1)C2=O (stereo not drawn)
  -7 | 6

Later entries.
Below each SMILES: NPYLR7 agonist | NPYLR7 agonist max-min
- Cn1ccnc1-c1ccc(NCC(c2ccccn2)N2CCOCC2)nn1 (stereo not drawn)
  3 | -1
- CC(N)=C(C#N)C(=O)COC(=O)CSCc1c(C)noc1C
  10 | 13
- CCOC(=O)N1CCN(C(c2cccc(Cl)c2)c2c(O)cc(C)n(Cc3cccnc3)c2=O)CC1 (stereo not drawn)
  9 | 1
- Cc1nonc1OCCNC(=O)c1ccc(C(C)N2CCCCC2)o1 (stereo not drawn)
  -4 | -13
- CC1CCCN(c2nc(N3CCN(Cc4ccccc4)CC3)nc(N)c2[N+](=O)[O-])C1 (stereo not drawn)
  0 | -1
- Cc1cc(NC(=O)CN2CCC(C(=O)N3CCCCCC3)CC2)c([N+](=O)[O-])cc1C
  0 | 26
- NC(=O)c1c(N=c2oc3ccccc3cc2-c2nc3ccccc3[nH]2)sc2c1CCCC2
  -2 | -7
- Cc1c(Cl)c(C(F)(F)F)nn1CC(=O)OC(C)C
  4 | -1
- COCCN1CCCC2(CCN(C3CCN(c4ccc(Cl)cc4)CC3)C2)C1 (stereo not drawn)
  13 | -3
- CCN(C(=O)c1cnn(C(C)C)c1)C(C)CO (stereo not drawn)
  1&3 | -1&2
- O=C(c1ccco1)N1CCN(C=CC(=O)C(F)(F)F)CC1
  9 | 8
- CCOC(=O)C1CCN(C2CCN(c3nncc(-c4ccccc4)n3)CC2)CC1
  12&0 | 6&-2
- c1ccc2c(Oc3ccc4c(c3)OCO4)nncc2c1
  -3 | -7
- COc1cc(OC)cc(C2SCCN2C(=O)Nc2cccc(Br)c2)c1 (stereo not drawn)
  3 | 14
- O=C(CCCSc1nnc(-c2c[nH]c3ccccc23)n1C1CC1)N1CCOCC1
  3 | 4
- CCOc1ccccc1NC(=O)Cn1nnc(C(=O)Nc2ccccc2C)c1N
  -10 | -14
- CSc1nnc(CC2CCN(C(=O)C(=O)N3CCOCC3)CC2)n1C
  1 | 1
- Fc1cccc(CSc2nncn3c2cc2occc23)c1
  -2 | -4
- CC(c1n[nH]c(=O)n1Cc1cccs1)n1cccn1 (stereo not drawn)
  16 | 12
- O=C(C1CCOC1)N1CCN(Cc2cccc(-c3noc(-c4cccnc4)n3)c2)CC1 (stereo not drawn)
  8 | 16
- CCCCCCCCCC(=O)N1CCSC1c1ccc(C(F)(F)F)cc1 (stereo not drawn)
  -7 | 0
- Cn1ncc2c(NCCCOc3ccccc3)ncnc21
  -1 | 1
- CCOC(=O)c1nn(CCc2ccc(OC)cc2)c2c1CN(Cc1cccn1-c1ccccn1)CC2
  15 | 4
- CC1(C(=O)NCCc2ccccc2)CCN1Cc1ccc2ccccc2c1 (stereo not drawn)
  7 | 1
- Cc1cc(C)cc(NC(=O)Cn2nc(-c3ccc(F)cc3)c3sc(N4CCOCC4)nc3c2=O)c1
  -3 | -1
- CCCN(CCC)C(=O)c1cc(-c2ccc([N+](=O)[O-])cc2)nn1-c1ccc(C)cc1C
  -4 | -3
- COCCNP1(=O)C=C(c2ccccc2)SC(c2ccccc2)=C1
  3 | 9
- CCOC(=O)c1cc(Cc2ccccc2)sc1NC(=O)Cc1ccc(F)cc1
  5 | 5
- C=CCN1CC(C(=O)NCCc2ncccc2C)CC1=O (stereo not drawn)
  6 | 3
- CCC(=O)C1(NC(=O)Cc2csc(CC)n2)CCCCC1
  -1 | -2
- CC1CCCN(C(C)(C)CNC(=O)Nc2ccc3ccn(C)c3c2)C1 (stereo not drawn)
  6 | 6
- Cc1n[nH]c(=S)n1CC(=O)N(C)C
  -1 | -2
- COCCOc1nc(-c2ccccc2C)n(-c2ccc(NC(=O)c3cccc(OC)c3)cc2)n1
  11 | 12
- Cc1nc(C(C)C)sc1C(=O)NCCS(=O)(=O)N(C)C
  16 | 10
- O=C(CC1CSc2nc3c(cnn3-c3ccccc3)c(=O)n21)NCc1ccncc1 (stereo not drawn)
  0 | 0
- CC(C)C(=O)Nc1nnc(SCC(=O)c2ccc(Cl)cc2)s1
  26 | 31
- Cc1cc(C(=O)N2CCN(c3nc4c(C)ccc(C)c4s3)CC2)on1
  7 | 10
- CCOC(=O)NC1CCN(C(C)C(=O)NCc2ccc(F)cc2)CC1 (stereo not drawn)
  6 | 5
- O=C(Nc1ccc(Nc2cc(-n3cccn3)ncn2)cc1)c1ccccc1Cl
  -5 | -12
- COc1ccc(CCN(C)C(=O)c2csc(CSc3nnc(-c4ccco4)n3-c3ccc(Cl)cc3)n2)cc1OC
  -2 | 5
- Cn1c(=O)c2c(nc(N3CCOCC3)n2CC=Cc2ccccc2)n(C)c1=O
  8 | 5
- COc1cccc(COC2CCCN(C(C)=O)C2)c1 (stereo not drawn)
  -7 | 1
- CC(NCc1cn(CCC(N)=O)c2ccccc12)c1nc2ccccc2[nH]1 (stereo not drawn)
  0 | -3
- Cc1ccccc1COc1cn(CC(=O)Nc2ccc(C(N)=O)cc2)c(CO)cc1=O
  9 | 5
- Cc1cc(C)n(-c2ccc(C(=O)N3CC(c4ccncc4)C3)cc2)n1
  4 | -1
- O=c1nc(NCc2ccco2)ccn1-c1nc(-c2ccccc2)oc1-c1ccccc1
  30 | 34
- CCCNC(=O)C(C)NC(=O)Cc1sc(Nc2ccccc2OC)nc1-c1ccccc1 (stereo not drawn)
  8 | 16

Looked up above.
Result of `O=C(Nc1ccc(Nc2cc(-n3cccn3)ncn2)cc1)c1ccccc1Cl` under NPYLR7 agonist: -5
Result of `Cc1n[nH]c(=S)n1CC(=O)N(C)C` under NPYLR7 agonist: -1

These rows are one share of the data. The share of hits here may be higher or lower than overall.
